D2 PAM: positive allosteric modulators of human D2 dopamine receptor | 360,000 compounds, 0.23% hits | potentiation, % (no concentration beside the values) | DiscoveRx D2 beta-arrestin cells, luminescence, 90 min; 100% = 57 uM dopamine signal | P14416; active = potentiation of 50% or more; inconclusive = 30% to 50%; inactive = 30% or less;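 further: compound concentration not given in the record; tested on top of an EC20 dose of dopamine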
Target sequence (P14416 whole entry, looked up): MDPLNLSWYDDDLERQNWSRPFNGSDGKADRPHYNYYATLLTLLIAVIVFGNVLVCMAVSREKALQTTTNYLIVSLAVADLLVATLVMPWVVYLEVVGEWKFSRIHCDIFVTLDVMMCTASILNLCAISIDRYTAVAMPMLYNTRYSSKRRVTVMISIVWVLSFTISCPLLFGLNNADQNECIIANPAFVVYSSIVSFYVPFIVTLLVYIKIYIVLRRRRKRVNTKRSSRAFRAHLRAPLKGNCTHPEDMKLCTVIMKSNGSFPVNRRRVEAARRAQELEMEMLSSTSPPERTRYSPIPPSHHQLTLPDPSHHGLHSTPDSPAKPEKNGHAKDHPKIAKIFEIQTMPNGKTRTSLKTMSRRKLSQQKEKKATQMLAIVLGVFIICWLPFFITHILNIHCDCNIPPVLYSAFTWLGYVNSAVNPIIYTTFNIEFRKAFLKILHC
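PathHunter D2 cells, attached overnight at 37 deg C, received compound in DMSO plus dopamine at EC20 (50 nM final) for 90 min at 37 deg C. Beta-arrestin recruitment was read as luminescence after 1 h with detection reagent at ambient temperature.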
TRPML1 inh: blocks the human TRPML1 channel; 390,000 compounds, 0.02% hits; Q9GZU1; TRPML1-inducible cells, Ca2+ dye fluorescence, FDSS; stronger effect = lower value; inhibition of EC80 agonist-evoked calcium signal; activity change, negative = inhibition, % (no concentration beside the values); in the data active means activity change below about -50%; inconclusive means about -30% to -50%; inactive means above about -30%;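 further: stimulus is agonist 54-4 at its EC80 concentration; on the % scale 0 is the no-effect control and ±100 the full control effect; compound concentration not given in the record; the text of the record puts the active cut at -80%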
Target sequence (Q9GZU1 whole entry, looked up): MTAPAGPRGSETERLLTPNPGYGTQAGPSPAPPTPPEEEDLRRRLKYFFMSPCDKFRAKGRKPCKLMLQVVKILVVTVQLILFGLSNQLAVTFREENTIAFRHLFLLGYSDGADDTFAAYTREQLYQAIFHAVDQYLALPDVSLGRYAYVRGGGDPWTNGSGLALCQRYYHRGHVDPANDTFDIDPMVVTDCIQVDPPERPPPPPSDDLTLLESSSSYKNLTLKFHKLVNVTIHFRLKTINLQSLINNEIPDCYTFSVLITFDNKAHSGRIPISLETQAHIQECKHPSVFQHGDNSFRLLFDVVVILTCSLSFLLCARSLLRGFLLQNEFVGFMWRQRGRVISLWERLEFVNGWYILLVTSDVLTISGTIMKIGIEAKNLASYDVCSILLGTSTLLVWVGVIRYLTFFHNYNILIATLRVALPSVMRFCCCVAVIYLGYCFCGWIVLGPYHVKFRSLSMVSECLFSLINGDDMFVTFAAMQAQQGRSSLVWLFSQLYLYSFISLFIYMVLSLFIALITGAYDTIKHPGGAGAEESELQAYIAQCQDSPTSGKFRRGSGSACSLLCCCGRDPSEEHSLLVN
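TRPML1-DL cells, Tet-induced overnight (~16 h, 37 °C) at 1,500 cells/well, were loaded with Ca8 no-wash dye plus quencher for 45-90 min at room temperature. Compounds were pinned during FDSS kinetic reading; agonist 54-4 at EC80 (4 uM final) then added.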
D2 agonist: human D2 receptor agonism in beta-arrestin assay; P14416; DiscoveRx PathHunter D2 beta-arrestin, luminescence, 90 min; 100% = 57 uM dopamine signal; activation, % (no concentration beside the values); 360,000 compounds, 0.084% hits; in the data active = activation above about 40%; inconclusive = about 15% to 40%; inactive = below about 15%; further: compound concentration not given in the record; the text of the record calls up to 30% inactive
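DiscoveRx PathHunter D2 beta-arrestin cells (2,100/well) attached overnight, then compound-stimulated 90 min at 37 C in HBSS/10 mM HEPES/0.1% Tween-20 buffer; beta-galactosidase complementation read by luminescence after 1 h at ambient temperature. Dopamine 57 uM final (EC100) as control.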
Six1-Eya2 blk: Six1/Eya2 interaction inhibition. AlphaScreen GST-Six1/His-Eya2 binding, biochemical; stronger effect = lower value; control for the full effect not named in the record. activity change, % (concentration not given with the values). 360,000 compounds, 0.56% hits; in the data active = activity change below about -65%; inconclusive = about -30% to -65%; inactive = above about -30%; further: on the % scale 0 is the no-effect control and ±100 the full control effect
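Compounds are tested against tagged Six1 and Eya2 proteins bridged by glutathione donor and nickel acceptor beads; after a one-hour incubation at 37 °C without light, AlphaScreen emission is recorded.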
PINK1 modulator: modulators of PINK1 expression. AID 624263. Potency, µM (highest dose often 76.6 µM), for inactives: at the highest dose activation (PINK1 increase), most hits filed as activators. 410,000 compounds, 0.2% hits. PINK1 immunofluorescence, high-content cytometry, 24 h; active = well fitted activation curve with a large enough effect; inconclusive = small, poorly fitted or top-dose-only effect; inactive = flat fitted curve, though single readings scatter; cell line not stated here;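 further: potency means the concentration at half of the fitted maximal effect; % of control where 0% means no effect; nearly all actives have a fitted effect of over 65% in size; a mitochondrial uncoupler was the plate control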
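Stable cell line, 250 cells/well, 12 h attachment; compounds pinned at 5 concentrations, 24 h; CCCP control. Fixed with nuclear dye, primary antibodies 12 h at 10 degrees C, secondary plus cell stain; laser-scanning cytometer read.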
TRPML1 ag: human mucolipin-1 channel agonism; TRPML1-expressing cells, Ca2+ dye fluorescence, FDSS; host cell line not named in the record; reference of the full effect not given here; activation, % (test concentration not listed); 410,000 compounds, 0.12% hits; AID 624414; in the data active = activation above about 50%; inconclusive = about 30% to 50%; inactive = below about 30%; further: 0% is about no effect; the text of the record puts the active cut at 80%
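Tetracycline-induced TRPML1-DL cells are seeded and incubated overnight before loading with a no-wash Ca2+ dye and quencher. Agonist activity is taken from the 110 s fluorescence read following compound pin-transfer on an FDSS, before EC80 54-4 challenge.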
Numbers without * were called inactive; & = joins results of further samples; [ ] = another dose, or the depositor's remark.

`O=C(CSc1n[nH]c(-c2ccccc2Cl)n1)NCCCc1ccccc1` gave TRPML1 inh 27.2, PINK1 modulator 3.2% and TRPML1 ag 0.3.
COc1cccc(NC(=O)c2ccn(C)n2)c1 was read as D2 PAM -3.4, TRPML1 inh -19.9, D2 agonist -1.1, Six1-Eya2 blk 0.5, PINK1 modulator 0.8% and TRPML1 ag 0.3.
`Cc1ccc(NC(=O)c2ccc3c(c2)[nH]c(=O)n3C(C)C)cc1` gave D2 PAM -1.3, TRPML1 inh -3.2, D2 agonist 2.6, Six1-Eya2 blk -0.2, PINK1 modulator 2.3% and TRPML1 ag -0.4.
Screening Cc1cc(OC(C)C(=O)NC2CC(C)(C)NC(C)(C)C2)c2c(C)cc(=O)oc2c1 (stereo not given) returned D2 PAM -6.2, TRPML1 inh 10.1, D2 agonist -2.0, Six1-Eya2 blk 6.8, PINK1 modulator -0.7% and TRPML1 ag 0.2.
`NC(=O)c1ccc(NC(=O)COC(=O)CCC2CCCCC2)cc1` gave D2 PAM -1.2, TRPML1 inh 9.9, D2 agonist 4.2, Six1-Eya2 blk 2.1, PINK1 modulator 0.1% and TRPML1 ag 0.2.
For CN(CC(=O)Nc1ccc(Cl)c(C(F)(F)F)c1)C(=O)C1CC(=O)N(CCc2ccccc2)C1 (stereo not given) the results were D2 PAM -35.9, TRPML1 inh 10.9, D2 agonist -0.2, Six1-Eya2 blk -6.1, PINK1 modulator 3.2% and TRPML1 ag -0.3.
For Cc1ccc(NC(=O)c2cc(CC(C)C)nc3ccccc23)cc1 the results were D2 PAM -12.5, TRPML1 inh 63.2, D2 agonist 8.0, Six1-Eya2 blk 0.5, PINK1 modulator 4.4% and TRPML1 ag 1.3.
COc1ccc(Cc2nnc(NC(=O)C3CC(=O)N(c4ccccc4)C3)s2)cc1OC (stereo not given) was read as D2 PAM -1.0, TRPML1 inh -11.4, D2 agonist 0.1, Six1-Eya2 blk 11.0, PINK1 modulator -0.4% and TRPML1 ag 1.6.
COC(=O)Cn1cc(C(=O)OC)c2ccccc21 was read as D2 PAM 9.6, TRPML1 inh 3.2, D2 agonist -4.7, Six1-Eya2 blk -8.7, PINK1 modulator 1.4% and TRPML1 ag -0.8.
For CCOC(=O)/C=C/c1ccccc1S(=O)(=O)NC(C)(C)C the results were D2 PAM -7.3, TRPML1 inh 21.9, D2 agonist -4.1, Six1-Eya2 blk 6.6, PINK1 modulator 0.1% and TRPML1 ag 0.4&-0.6.
Screening CCN(Cc1ccccc1)S(=O)(=O)c1ccc(F)cc1 returned D2 PAM -5.4, TRPML1 inh 0.6, D2 agonist -5.5, Six1-Eya2 blk 19.7, PINK1 modulator 0.0% and TRPML1 ag -0.2.
Screening NC(=O)c1ccc([N+](=O)[O-])cc1SCc1ccccc1 returned D2 PAM -9.7, TRPML1 inh -8.2, D2 agonist 4.4, Six1-Eya2 blk -12.1, PINK1 modulator 2.2% and TRPML1 ag -0.8.
Screening COc1cc(CN2C(=O)C(CCc3ccccc3)ON=C2c2cnccn2)cc(OC)c1 (stereo not given) returned D2 PAM 0.0, D2 agonist 10.3, Six1-Eya2 blk 1.1, PINK1 modulator 1.6% and TRPML1 ag 0.0.
Screening Cc1ccnc2nc(NC(=O)c3ccccc3Cl)nn12 returned TRPML1 inh 15.6, PINK1 modulator 0.7% and TRPML1 ag 0.5.
Screening COc1cccc(CNc2nc3cc(-c4ccccc4CO)sc3c(=O)n2C)c1 returned D2 PAM -6.2, D2 agonist -5.6, Six1-Eya2 blk -0.9, PINK1 modulator 0.4% and TRPML1 ag -0.8.
Screening CCOc1ccccc1NC(=O)CSc1ccc([N+](=O)[O-])cc1 returned D2 PAM -4.8, TRPML1 inh -7.0, D2 agonist -3.0, Six1-Eya2 blk 13.1, PINK1 modulator 0.6% and TRPML1 ag 3.4.
Screening O=C(COC(=O)c1ccc2c(c1)OCO2)Nc1ccccc1OC(F)F returned D2 PAM -6.6, TRPML1 inh 20.5, D2 agonist -0.9, Six1-Eya2 blk 2.5, PINK1 modulator 15.2% and TRPML1 ag 1.4.
Screening O=C(NC1CCCC1)C(c1ccc(F)cc1)N(Cc1ccc(Cl)cc1)C(=O)CCl (stereo not given) returned D2 PAM -21.8, TRPML1 inh 22.2, D2 agonist -0.7, Six1-Eya2 blk 14.9, PINK1 modulator -5.7% and TRPML1 ag 0.3.
Cc1nnc2nc(-c3ccccc3)nc(-c3ccccc3)n12 was read as D2 PAM -24.1, TRPML1 inh 5.1, D2 agonist -0.9, Six1-Eya2 blk 2.3, PINK1 modulator 4.4% and TRPML1 ag 4.0.
CN(Cc1ccc(OC(F)F)cc1)C(=O)C1CCN(S(=O)(=O)c2ccc3c(c2)OCCO3)CC1 was read as D2 PAM 1.0, TRPML1 inh -14.6, D2 agonist -0.8, Six1-Eya2 blk -4.4, PINK1 modulator 1.7% and TRPML1 ag -1.1.
Screening Cc1ccc(-c2nnc(NC(=O)c3c(F)cccc3Cl)s2)cc1 returned D2 PAM 0.2, TRPML1 inh -0.1, D2 agonist -4.8, Six1-Eya2 blk 1.2, PINK1 modulator -0.8% and TRPML1 ag 0.9.
Screening O=C(CSC1CN(C(c2ccccc2)c2ccccc2)C1)N/N=C/c1ccccc1 returned D2 PAM -8.1, TRPML1 inh -6.0, D2 agonist -10.3, Six1-Eya2 blk -25.8, PINK1 modulator 12.9% and TRPML1 ag 3.0.
`CS(=O)(=O)c1ccc(Cl)c(NC(=O)COC(=O)COc2ccc3c(c2)CCC3)c1` gave D2 PAM 7.8, TRPML1 inh -5.0, D2 agonist 2.8, Six1-Eya2 blk 0.5, PINK1 modulator 0.5% and TRPML1 ag 3.0.
COc1ccccc1-n1c(SCC(=O)NC(C)(C)C)nc(O)cc1=O was read as D2 PAM -10.1, TRPML1 inh -1.2, D2 agonist -0.8, Six1-Eya2 blk 5.1, PINK1 modulator 3.5%[38.3 µM] and TRPML1 ag 0.5.
Screening CCCCc1nc2sc3c(SCCN(C)C)ncnc3c2c2c1CCC2 returned D2 PAM -4.6, TRPML1 inh -2.9, D2 agonist -4.6, Six1-Eya2 blk -1.5, PINK1 modulator -2.4% and TRPML1 ag -0.2.
Cc1cccc(OCC(=O)Nc2ccccc2N2CCN(C(=O)C(C)C)CC2)c1C was read as D2 PAM 2.0, TRPML1 inh 5.9, D2 agonist -2.4, Six1-Eya2 blk -1.0, PINK1 modulator 1.2% and TRPML1 ag -1.1.
O=C(O)CCNC(=O)COc1ccc2c3c(c(=O)oc2c1)CCCC3 was read as D2 PAM -10.6, TRPML1 inh 37.4, D2 agonist -4.9, Six1-Eya2 blk -5.5, PINK1 modulator 1.6% and TRPML1 ag -0.3.
Screening CCN(CC)CCOC(=O)c1ccc(NC(=O)c2cc3c(s2)-c2ccccc2OC3)cc1 returned TRPML1 inh -21.7, PINK1 modulator 5.6% and TRPML1 ag 1.8.
COC(=O)C1CC(=O)N(c2ccc(C)cc2)C1 (stereo not given) was read as D2 PAM -5.3, TRPML1 inh -1.1, D2 agonist -2.9, Six1-Eya2 blk 9.8, PINK1 modulator -0.7% and TRPML1 ag 0.6.
Screening Nc1nnc(SCCCC(=O)c2ccccc2)s1 returned D2 PAM -1.3, TRPML1 inh 36.8, D2 agonist 0.9, Six1-Eya2 blk -10.6, PINK1 modulator -0.3% and TRPML1 ag 1.8.
For CCc1cccc(C)c1NC(=O)c1ccccc1 the results were D2 PAM -6.6, TRPML1 inh -8.1, D2 agonist -1.9, Six1-Eya2 blk -1.2, PINK1 modulator 7.9% and TRPML1 ag -0.7.
`CCCCn1c(=N)n(CCOc2ccc(C)cc2)c2ccccc21` gave D2 PAM -29.4, TRPML1 inh 8.2, D2 agonist -5.9, Six1-Eya2 blk 1.6, PINK1 modulator -1.5% and TRPML1 ag 1.4.
`CC(C)c1ccc(C(=O)OCC(=O)Nc2cccc(S(=O)(=O)NC3=NCCC3)c2)cc1` gave D2 PAM -14.0, TRPML1 inh -11.7, D2 agonist 0.2, Six1-Eya2 blk -3.3, PINK1 modulator 1.0% and TRPML1 ag -0.9.
Cc1ccc2c(CC(=O)NC3=NCCS3)coc2c1 was read as D2 PAM 9.5, TRPML1 inh 10.3, D2 agonist -0.2, Six1-Eya2 blk -3.1, PINK1 modulator -0.8% and TRPML1 ag 0.9.
Screening O=c1cc(CN2CCCCC2)c2ccccc2o1 returned D2 PAM -6.8, D2 agonist -1.4, Six1-Eya2 blk 5.6, PINK1 modulator 1.3% and TRPML1 ag -0.4.
`COc1ccccc1-c1cc(C(F)(F)F)n2ncc(C(=O)N3CCc4ccccc4C3)c2n1` gave D2 PAM -18.3, TRPML1 inh 37.0, D2 agonist -4.2, Six1-Eya2 blk 3.9, PINK1 modulator 4.5% and TRPML1 ag 0.5.

Structures listed so far with a tert-butyl group:
For CCOC(=O)/C=C/c1ccccc1S(=O)(=O)NC(C)(C)C the results were D2 PAM -7.3, TRPML1 inh 21.9, D2 agonist -4.1, Six1-Eya2 blk 6.6, PINK1 modulator 0.1% and TRPML1 ag 0.4&-0.6.
COc1ccccc1-n1c(SCC(=O)NC(C)(C)C)nc(O)cc1=O was read as D2 PAM -10.1, TRPML1 inh -1.2, D2 agonist -0.8, Six1-Eya2 blk 5.1, PINK1 modulator 3.5%[38.3 µM] and TRPML1 ag 0.5.

(cont.)
For O=C(CN1CCSc2ccccc21)N1CCCCC1 the results were TRPML1 inh 9.2, PINK1 modulator 6.2% and TRPML1 ag 4.5.
`COc1ccccc1CNc1ccc2nnc(CCNC(=O)c3ccccc3)n2n1` gave D2 PAM -0.5, TRPML1 inh 0.6, D2 agonist 2.6, Six1-Eya2 blk 2.7, PINK1 modulator -0.2% and TRPML1 ag -0.5.
`Cc1ccnc2c1ccc1ccccc12` gave D2 PAM -6.9, TRPML1 inh 0.0, D2 agonist 5.6, Six1-Eya2 blk 1.1, PINK1 modulator -1.7%&1.1% and TRPML1 ag 2.9&-1.0.
For O=C1/C(=C\c2cc(Br)cc(Br)c2O)SC(=S)N1Cc1ccccc1 the results were D2 PAM -7.1, TRPML1 inh -12.1, D2 agonist -5.8, Six1-Eya2 blk -5.9, PINK1 modulator inconclusive and TRPML1 ag 5.3.
For O=C(CNC(=O)C12CC3CC(CC(C3)C1)C2)NCc1ccccc1 the results were D2 PAM 2.2, TRPML1 inh 22.0, D2 agonist -0.7, Six1-Eya2 blk 20.5, PINK1 modulator 0.0% and TRPML1 ag 0.9.
CCC(NS(=O)(=O)c1cnn(CC)c1)c1ccccc1 (stereo not given) was read as D2 PAM -1.5, TRPML1 inh 8.1, D2 agonist 6.4, Six1-Eya2 blk 3.0, PINK1 modulator -0.1% and TRPML1 ag -0.1.
CN(CC(=O)Nc1cccc(Cl)c1)S(=O)(=O)c1ccc2c(c1)n(C)c(=O)c(=O)n2C was read as D2 PAM -10.6, TRPML1 inh -11.7, D2 agonist -2.6, Six1-Eya2 blk 6.9, PINK1 modulator 2.2% and TRPML1 ag -1.1.
For O=C(NC(NC(=S)N1CCOCC1)C(Cl)(Cl)Cl)c1ccc(Cl)cc1 (stereo not given) the results were D2 PAM -7.3, TRPML1 inh inconclusive, D2 agonist -1.5, Six1-Eya2 blk -8.6, PINK1 modulator 6.0% and TRPML1 ag -0.2.

Assay outcomes as filed in PubChem BioAssay.
